PINK1 modulator: A Quantitative High throughput Screen to Identify Chemical Modulators of PINK1 Expression; PINK1 immunofluorescence, high-content cytometry, 24 h; Potency, µM (highest dose often 76.6 µM), inactives show at the top dose activation (PINK1 increase), usual class: activators; actives 0.2% (n = 410,000); active = well fitted activation curve with a large enough effect; inconclusive = small, poorly fitted or top-dose-only effect; inactive = flat fitted curve, though single readings scatter; cell line not stated here;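 also: potency is read from the fitted curve at half-maximal effect; % of control where 0% means no effect; nearly all actives have a fitted effect of over 65% in size; a mitochondrial uncoupler was the plate control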
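A stable cell line was treated with compounds at 5 concentrations for 24 hours, with CCCP as control. PINK1 levels and mitochondrial localization were measured by immunofluorescence with mitochondrial, cell and nuclear markers after fixation, read by laser-scanning cytometry.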
D2 ag: Beta-Arrestin HTS for Positive Allosteric Modulators of the Human D2 Dopamine Receptor: Agonists | DiscoveRx PathHunter D2 beta-arrestin, luminescence, 90 min; 100% = 57 uM dopamine signal | D(2) dopamine receptor (Homo sapiens), P14416 | AID 624465, 2012 | actives 0.084% (n = 360,000) | activation, % (test concentration not listed); in the data active = activation above about 40%; inconclusive = about 15% to 40%; inactive = below about 15%; also: compound concentration not given in the record; the text of the record calls up to 30% inactive
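DiscoveRx PathHunter D2 beta-arrestin cells (2,100/well) attached overnight, then compound-stimulated 90 min at 37 C in HBSS/10 mM HEPES/0.1% Tween-20 buffer; beta-galactosidase complementation read by luminescence after 1 h at ambient temperature. Dopamine 57 uM final (EC100) as control.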
TRPML1 agonist: qHTS for Agonists of the Human Mucolipin Transient Receptor Potential 1 (TRPML1); activation, % (no concentration beside the values); TRPML1-expressing cells, Ca2+ dye fluorescence, FDSS; host cell line not named in the record; reference of the full effect not given here; actives 0.12% (n = 410,000); Mucolipin-1 (Homo sapiens), Q9GZU1; AID 624414, 2012; in the data active = activation above about 50%; inconclusive = about 30% to 50%; inactive = below about 30%; also: 0% is about no effect; the text of the record puts the active cut at 80%
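Agonist activity was taken from a 110 s kinetic Ca2+ dye read on the FDSS after pinning compounds onto TRPML1-DL cells. The cells were seeded at 1,500/well with Tet inducer, incubated about 16 h, then dye-loaded at room temperature.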
CtBP-E1A blk: qHTS Assay for Inhibitors of the CtBP/E1A Interaction; AID 651724, 2012; AlphaScreen GST-E1A/His-CtBP binding, 1536-well; hits give low values; control for the full effect not named in the record; CtBP / adenovirus E1A interaction (AlphaScreen); activity change, % (concentration not given with the values); actives 0.49% (n = 340,000); in the data active means activity change below about -65%; inconclusive means about -30% to -65%; inactive means above about -30%; also: % is scaled to controls: 0 for no effect and ±100 for the full control effect
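Protein mix (5X: 125 nM each GST-E1A, His-CtBP) was incubated with pinned compound 2 h at 37 deg C in dark, in 50 mM Tris pH 8.0 buffer with 300 mM NaCl. Glutathione donor and nickel acceptor beads followed; AlphaScreen signal read after 1 h.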
TRPML1 inh: qHTS for Inhibitors of the Human Mucolipin Transient Receptor Potential 1 (TRPML1) | TRPML1-inducible cells, Ca2+ dye fluorescence, FDSS; hits give low values; inhibition of EC80 agonist-evoked calcium signal | activity change, negative = inhibition, % (no concentration beside the values) | actives 0.02% (n = 390,000); in the data active means activity change below about -50%; inconclusive means about -30% to -50%; inactive means above about -30%;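 also: stimulus is agonist 54-4 at its EC80 concentration; % is scaled to controls: 0 for no effect and ±100 for the full control effect; compound concentration not given in the record; the text of the record puts the active cut at -80%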
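Calcium fluorescence in TRPML1-DL cells induced overnight with Tet: a 110 s read after compound pin addition, then a 110 s antagonist read after challenge with 54-4 at 4 uM final (EC80).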
Six1-Eya2 inh: qHTS Assay for Inhibitors of the Six1/Eya2 Interaction | Homeobox protein SIX1 (Homo sapiens) + Protein phosphatase EYA2 (Homo sapiens), … | AlphaScreen GST-Six1/His-Eya2 binding, biochemical; hits give low values; control for the full effect not named in the record | activity change, % (test concentration not listed) | actives 0.56% (n = 360,000) | AID 651725, 2012; in the data active = activity change below about -65%; inconclusive = about -30% to -65%; inactive = above about -30%; also: % is scaled to controls: 0 for no effect and ±100 for the full control effect; compound concentration not given in the record
Target sequence (O00167 whole entry, looked up): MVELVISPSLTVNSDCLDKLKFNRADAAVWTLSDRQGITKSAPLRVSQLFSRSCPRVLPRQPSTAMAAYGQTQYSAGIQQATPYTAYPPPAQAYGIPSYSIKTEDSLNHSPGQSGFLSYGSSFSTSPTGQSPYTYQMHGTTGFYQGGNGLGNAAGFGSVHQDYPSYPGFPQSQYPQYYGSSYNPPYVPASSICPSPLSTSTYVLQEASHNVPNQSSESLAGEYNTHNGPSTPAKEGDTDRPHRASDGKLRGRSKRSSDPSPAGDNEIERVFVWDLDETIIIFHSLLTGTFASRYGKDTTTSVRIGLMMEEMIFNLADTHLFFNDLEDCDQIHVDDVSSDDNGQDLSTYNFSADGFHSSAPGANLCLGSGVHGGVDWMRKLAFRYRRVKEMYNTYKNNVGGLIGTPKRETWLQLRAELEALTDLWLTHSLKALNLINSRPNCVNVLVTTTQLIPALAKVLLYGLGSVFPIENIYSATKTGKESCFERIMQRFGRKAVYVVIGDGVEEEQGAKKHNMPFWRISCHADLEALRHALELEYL
Target sequence (Q15475 whole entry, looked up): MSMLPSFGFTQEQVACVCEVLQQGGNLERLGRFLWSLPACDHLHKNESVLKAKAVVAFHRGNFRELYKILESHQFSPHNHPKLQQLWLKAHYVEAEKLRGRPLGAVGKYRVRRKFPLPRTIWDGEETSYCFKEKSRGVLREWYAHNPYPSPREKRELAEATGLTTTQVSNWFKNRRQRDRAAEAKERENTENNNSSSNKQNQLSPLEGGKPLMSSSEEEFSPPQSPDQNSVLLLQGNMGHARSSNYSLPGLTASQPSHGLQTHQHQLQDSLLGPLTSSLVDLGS
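AlphaScreen luminescence read after one hour at 37 °C in darkness. Pin-transferred compounds met GST-Six1 and His-Eya2 protein (5X stock 250 nM/500 nM) plus glutathione donor and Ni-chelate acceptor beads (5X, 50 ug/mL).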
Starred values were filed as active, the others as inactive; ? = inconclusive; / = not tested or not shown; & = joins results of further samples; [ ] = remark or other dose.

SMILES	PINK1 modulator	D2 ag	TRPML1 agonist	CtBP-E1A blk	TRPML1 inh	Six1-Eya2 inh
COc1ccc(NC(=O)c2ccc(NC(=O)c3nc4nc(C)cc(C)n4n3)cc2)cc1	6.0%	-1.7	2.1	-12.9	-1.6	0.7
O=S(=O)(NCc1ccc2c(c1)OCO2)c1ccc(F)cc1	-0.4%	-0.7	-0.4	-8.0	0.7	21.6
COc1cccc(NC(=O)CCCn2c(=O)c3cccn3c3cccnc32)c1	1.1%	/	0.1	/	-4.4	/
CN1CCN(c2ccc([N+](=O)[O-])cc2NC(=O)c2ccccc2)CC1	-0.1%[38.3 µM]	-0.3	-0.2	-3.0	-4.6	-0.7
COc1cccc(N2CCN(S(=O)(=O)c3cccc4cccnc34)CC2)c1	-1.6%	1.1	0.3	-9.1	-0.1	-10.3
CCOc1ccc(CN(C(=O)c2cc(=O)c3cc(C)cc(C)c3o2)C2CCS(=O)(=O)C2)cc1 (stereo unspecified)	-1.2%&-0.7%	1.0	3.1&3.4	/	9.2&2.1	-10.1
Cc1ccc2nc3c(c(N)c2c1)CCN3c1ccccc1	0.8%	-4.9	-0.6	-9.9	-14.3	-9.2
O=C(O)CCCN1C(=O)C2C3CCC(O3)C2C1=O (stereo unspecified)	1.9%	4.3	0.2	1.3	-1.3	9.5
CCCC1=NN(C(=O)Cc2ccc(OC)cc2)C(O)(C(F)(F)F)C1 (stereo unspecified)	4.3%	-3.6	-0.1	-0.1	48.6	3.7
COc1ccccc1OCC(=O)Sc1ccc(C)cc1	-0.4%[38.3 µM]	-1.5	-0.2	-4.6	-5.9	-7.9
CCc1ccccc1NC(=O)c1cnn(-c2ccccc2)c1C	-1.4%	-0.2	0.7	-6.8	2.4	39.2
CC1=C(C(=O)OC2CCCC2)C(c2coc3ccc(C)cc3c2=O)C2=C(CCCC2=O)N1 (stereo unspecified)	-2.0%	-4.2	0.3	/	33.7	1.6
COCCN1C(=O)C(=O)/C(=C(/O)c2ccc(S(=O)(=O)N3CCOCC3)cc2)C1c1cccc([N+](=O)[O-])c1 (stereo unspecified)	-0.4%	-1.5	-0.3	3.1	52.6	3.0
O=C(NC1CCS(=O)(=O)C1)Oc1ccc(Cl)cc1 (stereo unspecified)	3.1%	-2.3	0.2	6.1	2.6	3.1
COc1ccc(CCC(=O)NC2CCCCC2)cc1	0.7%	2.8	-0.4	4.1	-16.4	-6.4
CSc1ccc(NC(=O)C2(C)CCN2C(=O)C2(c3ccccc3)CC2)cc1 (stereo unspecified)	1.2%	-5.3	-0.5	-14.8	/	-14.8
CCC(Sc1nc(-c2ccccc2)cc(=O)[nH]1)C(=O)O (stereo unspecified)	-0.5%[38.3 µM]	-0.6	1.1	3.3	-7.1	5.6
O=C1CC(c2c(F)cccc2Cl)C2=C(COC2=O)N1 (stereo unspecified)	0.5%	-0.2	0.7	2.2	19.2	4.6
O=C1COc2ccc(-c3cc(-c4ccccc4)c4c(n3)-c3ccccc3OC4)cc2N1	0.2%	/	-0.4	/	-1.4	/
CCCNS(=O)(=O)c1ccc(OCC(=O)NCCC2=CCCCC2)cc1	7.4%[38.3 µM]	-2.6	-0.9	4.4	3.1	-1.6
CCc1nnc(NC(=O)CSc2nc3c([nH]c4ccccc43)c(=O)n2-c2cc(C)cc(C)c2)s1	-2.1%	/	2.5	/	53.9	/
COc1ccc(N2CCCn3c2nc2c3c(=O)n(Cc3ccc(F)cc3)c(=O)n2C)c(OC)c1	3.9%	-2.2	0.2	-0.5	31.6	-0.8
Cc1cccc(C)c1NC(=O)CN(C)C(=O)c1ccccc1OCc1ccc(F)cc1	-5.0%	1.6	1.5	0.9	1.5	2.6
CCCCOc1ccccc1NC(=O)CC1SC(=NCC)N(CC)C1=O (stereo unspecified)	1.6%	-0.3	2.1	0.4	12.0	1.7
OCC[C@H]1C[C@H](O)[C@@H](O)[C@]2(Cc3ccccc3CO2)O1	0.3%	-6.1	-0.3	3.2	0.3	-1.6
COc1ccc(NC(=O)C2CCN(S(=O)(=O)c3ccc4c(c3)NC(=O)CO4)CC2)cc1	-1.3%	-0.7	-0.5	-0.1	1.9	-0.7
CCOC(=O)C1=C(N)OC2=C(C(=O)CC(C)(C)C2)C1c1ccc(C)s1 (stereo unspecified)	2.6%	-1.6	2.1	-1.6	-22.3	-0.5
CCCn1c(C)cc(C(=O)COc2ncnc3sccc23)c1C	22.3%[38.3 µM]	0.5	2.7	-5.8	16.2	-11.2
COc1ccccc1CN(C)CC(=O)Nc1ccccc1-c1ccccc1	?	-1.8	3.9	-7.5	24.3	4.3
COc1ccc(S(=O)(=O)NCc2nc3nc(C)cc(C)n3n2)cc1OC	0.2%&-0.3%	-2.7	-0.5&-0.1	-2.7	10.3&4.1	-0.7
COc1ccc(NC(=O)CCN2C(=O)C3CC=C(Cl)CC3C2=O)cc1 (stereo unspecified)	-0.4%	2.5	0.9	7.3	-5.3	1.3
C[C@H](CO)N1C[C@H](C)[C@@H](CN(C)S(=O)(=O)c2ccc3c(c2)OCCCO3)OCc2cn(nn2)CCCC1=O	0.7%	-2.4	2.6	-1.9	43.7	0.9
Cc1oc(-c2cccc(Cl)c2)nc1CSCC(=O)O	2.0%&1.9%	-0.9	1.0&0.5	2.2	-10.2&8.1	-2.5
CC(=O)c1cccc(NC(=O)CN2CCN(S(=O)(=O)/C=C/c3ccccc3)CC2)c1	0.3%	3.9	-0.7	2.4	-4.4	3.6
CCOc1ccc(S(=O)(=O)Nc2cccc(C(=O)NCCCn3ccnc3)c2)cc1	-0.6%	1.1	1.4	-4.5	-9.7	-7.2
CCOc1ccc(Oc2ccccc2NC(=O)CN2C(=O)NC3(CCCC3)C2=O)cc1	-0.4%	-3.5	1.7	2.9	-2.4	2.1
O=C(NC1CCCC1)c1ccc2c(c1)N(Cc1ccc(F)cc1)CCS2	1.5%	4.0	1.4	/	0.4	-9.0
Nc1ncc(-c2nnnn2-c2ccc(Cl)cc2)c(-c2ccc(Cl)cc2)n1	2.5%	0.6	1.7	-11.7	-18.0	-1.0
CCCCn1c(N)c(N(CC(C)C)C(=O)CCNC(=O)c2ccc(Br)cc2)c(=O)[nH]c1=O	-1.5%	-1.5	0.3	-0.8	-10.6	-0.6
CCC(=O)N1CCN(c2ccc(NC(=S)NC(=O)c3cccc([N+](=O)[O-])c3)cc2)CC1	0.9%	-1.1	-0.8	-12.6	-9.0	-21.9
CC(C)c1ccc(OCC(=O)NNC(=S)NC(=O)C2CC2)cc1	0.9%	-4.1	7.2	-0.3	-21.8	-27.7
CCOc1ccc(-n2nc3ccc(NC(=O)c4ccc(OC)c(Cl)c4)cc3n2)cc1	0.6%	/	0.2	/	-16.7	/
Cc1c(C(=O)Nc2ccccc2)cnn1-c1ccccc1	0.0%	1.2	-0.1	9.1	-3.7	11.4
Cc1ccc(-n2nc3c(=O)n(CC(=O)NCCc4cccs4)nc(C)c3c2C)cc1	-1.4%	-2.7	-1.5	1.2	-13.8	-2.0
CCOC(=O)CN1C(=O)c2ccccc2Sc2ncccc21	-3.2%&1.8%	3.6	1.3&1.4	6.1	0.8&4.2	7.0
Cc1cc(C)nc(NN2C(=O)C=CC2=O)n1	1.5%	0.8	0.3	/	26.2	0.3
CC(=O)c1sc(NC(=O)c2c(F)cccc2F)nc1-c1ccccc1	2.3%	-5.1	-0.8	7.0	-4.3	1.8
CCOC(=O)c1sc(NC(=O)CSc2ncccn2)nc1C	3.6%	1.6	1.2	-7.0	1.8	-3.9
CC1(C(=O)NC2CCCC2)CCC(=O)N1Cc1cccs1 (stereo unspecified)	1.3%	0.3	0.4	8.6	4.8	4.9
COc1ccc(NS(=O)(=O)c2cccc(C(=O)N/N=C(\C)c3ccncc3)c2)cc1	1.8%	-0.9	-0.9	6.3	-2.9	-1.1
O=C(NCCN1CCN(c2ccccc2)CC1)c1cccc(Cl)c1	0.2%	-2.4	-0.3	/	-13.6	4.7
CC(=O)NC1=NN(C(C)=O)C(c2ccc(C(C)C)cc2)S1 (stereo unspecified)	8.9%	2.7	0.9	9.7	4.0	-6.5
COc1ccccc1CNS(=O)(=O)c1c(C)[nH]c(C)c1C(=O)N1CCCCC1	-0.5%	-6.5	-0.6	-5.7	5.0	7.1
Cc1ccc(NC(=O)CN2C(=O)NC3(CCCC3)C2=O)c(Cl)c1	1.0%	-1.3	5.6	4.9	9.7	-2.1
CCCCNC(=S)N/N=C/c1cccc(OCC)c1O	5.1%	2.9	1.2	-13.7	18.1	-2.3
CCOC(=O)CON1C(=O)C(C)(C)N(OCC(=O)OCC)C(=O)C1(C)C	-0.2%	0.1	-0.7	-3.8	1.5	-6.7
CCCN(CCC)Cc1cc2ccccc2c2c1COC2	0.7%	0.9	-0.2	3.7	-5.5	11.7
CCCCOc1ccccc1C(=O)N(Cc1sccc1C)C1CCS(=O)(=O)C1 (stereo unspecified)	-0.1%	/	0.4	/	0.5	/
CN(C)/C=C(/C(=O)c1ccccc1Cl)S(C)(=O)=O	0.1%	-1.9	-0.3	-9.9	-10.0	-6.8
Cc1ccc(N(CC(=O)N2CCOCC2)S(C)(=O)=O)cc1Cl	0.5%	-3.7	0.5	-5.4	-29.8	9.8

The last 2 entries of the part before come first, to join the parts.
SMILES	PINK1 modulator	D2 ag	TRPML1 agonist	CtBP-E1A blk	TRPML1 inh	Six1-Eya2 inh
CN(C)/C=C(/C(=O)c1ccccc1Cl)S(C)(=O)=O	0.1%	-1.9	-0.3	-9.9	-10.0	-6.8
Cc1ccc(N(CC(=O)N2CCOCC2)S(C)(=O)=O)cc1Cl	0.5%	-3.7	0.5	-5.4	-29.8	9.8
CC(C)c1ccc(NC(=O)c2csnn2)cc1	3.3%[38.3 µM]	-2.3	1.6	8.7	2.4	4.5
CC1CN(c2nnc(-c3ccccc3)c3ccccc23)CC(C)O1 (stereo unspecified)	0.8%	-2.9	0.3	-2.2	6.3	-11.0
CC1CCc2c(sc(NC(=O)Cn3nc(C(=O)O)c4ccccc4c3=O)c2C#N)C1 (stereo unspecified)	0.3%	-1.0	1.3	3.3	16.4	4.7
O=C(NCC1CCCO1)c1sc(=S)n2c1[nH]c(=O)c1ccc(C(=O)N3CCCCC3)cc12 (stereo unspecified)	0.8%	-4.6	1.8	?	-5.4	-28.2
O=C(Nc1cc2c3c(c1)CC(=O)N3CCC2)C1CC1	-1.8%	-19.6	0.9	-1.9	7.2	1.0
O=C(c1cc(-c2ccco2)nc2ccccc12)N1CCN(c2ccc(F)cc2)CC1	-0.3%	0.5	0.0	-27.2	25.4	-19.3
O=Cc1ccccc1OCCN1CCCC1=O	1.2%	5.1	1.0	/	37.1	3.6

Screening results as filed in PubChem BioAssay.
